# Source: PubChem (ICCB-Longwood Screening Facility, Harvard Medical School)
# Polio RdRp inh: poliovirus RNA polymerase inhibition | P03300 | poliovirus polymerase elongation, fluorescence polarization; stronger effect = lower value | % elongation, % (compound at 16.7 µg/mL) | 0.66% of 150,000 active | AID 588519; in the data active = % elongation below about 90%; also: some results filed as inactive read as strong as hits
# Target sequence (P03300 1749-2209 limits assumed): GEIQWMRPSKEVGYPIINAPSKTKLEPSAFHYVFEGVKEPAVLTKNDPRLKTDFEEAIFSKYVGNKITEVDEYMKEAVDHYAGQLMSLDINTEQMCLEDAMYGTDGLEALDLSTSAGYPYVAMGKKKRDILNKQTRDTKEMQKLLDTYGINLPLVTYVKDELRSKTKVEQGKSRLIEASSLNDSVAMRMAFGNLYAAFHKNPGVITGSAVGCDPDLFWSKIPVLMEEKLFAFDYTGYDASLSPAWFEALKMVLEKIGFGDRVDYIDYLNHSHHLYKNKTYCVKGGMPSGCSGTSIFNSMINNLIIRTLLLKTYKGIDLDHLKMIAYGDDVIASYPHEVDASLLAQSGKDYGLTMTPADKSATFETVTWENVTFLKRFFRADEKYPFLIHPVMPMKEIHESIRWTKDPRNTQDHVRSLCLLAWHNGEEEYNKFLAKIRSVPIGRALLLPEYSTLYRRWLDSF
# Polio RdRp inh intensity: recorded beside Polio RdRp inh, whose call it bears; % elongation; measured here: total intensity read-out; formula for this scale not given here;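 total fluorescence in place of polarization; lower means less elongation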
# * marks the source's active call; other numbers are inactive results.
SMILES,Polio RdRp inh,Polio RdRp inh intensity
CCC(=O)Nc1sc2c(c1C(=O)Nc1ccccc1C)CCC(C)C2 (stereo not given),97.0,84.0
CCC(Sc1nc2ncccc2[nH]1)C(=O)Nc1ccccc1F (stereo not given),116.0,109.0
Cc1cccc(-c2noc(CNC(=O)c3ccccc3Br)n2)c1,108.0,113.0
Cc1ccn2c(Nc3ccc(C(C)C)cc3)c(-c3cccnc3)nc2c1,109.0,112.0
CCc1cc2c(cc3c(=O)n(CCCC(=O)NCc4cccc(Cl)c4)ncn32)s1,106.0,113.0
CC(C)Oc1ccc(CNC(=O)CN2C(=O)CCc3cc(S(=O)(=O)N4CCCCC4)ccc32)cc1,102.0,107.0
COc1ccc(C(C(=O)NCc2ccccc2)N(C(=O)Cn2nnc3ccccc32)c2ccc(F)cc2)cc1 (stereo not given),104.0,109.0
O=C(c1ccc2c(c1)N(Cc1ccc(Cl)cc1)C(=O)c1ccccc1S2(=O)=O)N1CCN(Cc2ccccc2)CC1,109.0,109.0
CCCCCn1c(=N)n(CC(O)COc2cccc(C)c2)c2ccccc21 (stereo not given),105.0,107.0
Nc1c(-c2nc(-c3cccs3)no2)nnn1-c1cccc(F)c1,115.0,118.0
Cc1ccc(-c2nnc(Nc3ccc(OCC(N)=O)cc3)c3ccccc23)cc1S(=O)(=O)N(C)C,106.0,102.0
COc1cccc(-n2cc(C(=O)OCc3ccc(F)c(F)c3)c3ccccc3c2=O)c1,109.0,111.0
Cc1ccc(CS(=O)(=O)c2ncc(Cl)c(C(=O)Nc3nc4ccc(C)cc4s3)n2)cc1,107.0,104.0
Brc1cccc(-c2nn(-c3ccccc3)c3c2cnc2cc4c(cc23)OCO4)c1,112.0,114.0
Cc1ccc(-c2nnc3ccccc3c2C(=O)Nc2ccccc2F)cc1,106.0,112.0
COc1ccc(NC(=O)c2sc3nc4c(cc3c2N)CN(Cc2ccccc2)CC4)cc1OC,114.0,113.0
Cc1ccc(CN2C(=O)C3(c4ccccc42)N(c2ccc(C)c(Cl)c2)C(=O)CS3(=O)=O)cc1 (stereo not given),106.0,108.0
CCOC(=O)c1c(C)oc2ccc(N(C(=O)c3ccncc3)S(=O)(=O)c3ccc(Br)cc3)cc12,101.0,104.0
Cc1ccc(NC(=O)CSc2nc(-c3ccc(F)cc3)nc3c2Cc2c(CO)cnc(C)c2O3)cc1C,106.0,108.0
Cc1ccc(N2CCN(C(=O)CCc3c(C)nc4c(c3C)c(=O)n(C)c(=O)n4C)CC2)c(C)c1,108.0,109.0
CC(C)N(Cc1ccccc1)S(=O)(=O)c1ccc(-c2cc(C(F)(F)F)on2)s1,107.0,113.0
Cc1ccccc1OCC(=O)Nc1ccc2nc(SCC(=O)N3CCc4ccccc43)sc2c1,101.0,104.0
Cc1ccc(Cl)cc1N1CCN(C(=O)c2cn(C3CCCCC3)c(=O)c3c2c2ccccc2n3C)CC1,115.0,117.0
O=C1CC(c2ccccc2)Sc2nc(-c3ccc(F)cc3)nn21 (stereo not given),106.0,110.0
COc1cccc(-c2nc(S(=O)(=O)c3ccccc3)c(N3CCC(C)CC3)o2)c1,108.0,108.0

# The results go on.
SMILES,Polio RdRp inh,Polio RdRp inh intensity
Cc1nn2c(C)c(C(=O)NCCc3ccccc3)cnc2c1-c1ccccc1,103.0,109.0
COCCCn1c(SCc2cccc(Cl)c2)nc2c(sc3ccccc32)c1=O,98.0,95.0
COc1ccccc1NC(=O)c1c(C)cc(C)nc1SCC(=O)Nc1cccc(C)c1,113.0,109.0
CCCCOc1ccc(CNC(=O)Cc2ccc(NC(=O)N3CCSc4ncccc43)cc2)cc1,96.0,88.0
Cc1ccc(C)c(CN2C(=O)c3ccccc3S(=O)c3ccc(C(=O)N4CCOCC4)cc32)c1 (stereo not given),101.0,103.0
Cc1ccc(-n2c(SCc3ccccc3)nc3c([nH]c4ccccc43)c2=O)cc1,105.0,110.0
Cc1ccc(C)c(NC(=O)CN(C)S(=O)(=O)c2ccc3c(c2)CCC(=O)N3)c1,104.0,110.0
Cc1ccc(C(=O)N2CCc3cc(CNS(=O)(=O)c4ccc(Cl)s4)ccc32)cc1,111.0,110.0
CCOc1ccccc1NC(=O)c1nc(SC(C)C)ncc1Cl,104.0,100.0
COc1ccc(-c2nc3sc(CCNC(=O)Cc4ccc(Cl)cc4)c(C)n3n2)cc1,105.0,107.0
COc1ccccc1Nc1ncnc2c1nc1n2CCCC1,105.0,101.0
CCCS(=O)(=O)N1CCC(C(=O)NCCOC)CC1,118.0,123.0
COc1ccc(Cn2ccc3nc(C)c(C(=O)Nc4ccc(C)c(F)c4)cc3c2=O)cc1,115.0,115.0
CCOC(=O)C1(C)C=C(Nc2cccc(C)c2)C(=O)N1c1ccccc1 (stereo not given),113.0,102.0
CCOc1ccc(NC(=O)Cn2cc(C(=O)c3ccccc3)c(=O)c3cc4c(cc32)OCCO4)cc1,104.0,109.0
COc1ccc2c(c1)c1c(c(=O)n(Cc3ccccc3)c(=O)n1CC(=O)NCc1ccc(C)cc1)n2C,112.0,112.0
Cc1cc(C)n(C(C)CC(=O)Nc2cccc(C(F)(F)F)c2)n1 (stereo not given),102.0,110.0
CC1CCN(S(=O)(=O)c2ccc3c(c2)N(C)C(=O)CC(=O)N3C)CC1,113.0,115.0
CCc1ccc(S(=O)(=O)NCc2cccn2Cc2cccc(C)c2)cc1,107.0,112.0
COc1ccc(NC(=O)c2c(NCc3sccc3C)sc3c2CCCCC3)c(OC)c1,111.0,127.0
Cc1c(C(=O)N2CCCC2)oc2c1-c1nn(CC(=O)NCc3ccccc3F)cc1CC2,103.0,103.0
Cc1ccc(N(C)C(=O)Cn2ncc3c([nH]c4ccccc43)c2=O)cc1C,101.0,109.0
O=C(Nc1cccc(Cl)c1Cl)c1cc2nc(-c3ccc(Cl)cc3)cc(C(F)(F)F)n2n1,105.0,111.0
CC1=C(C(=O)OCC2CCCCC2)C(c2cccc(F)c2F)CC(=O)N1 (stereo not given),109.0,115.0
Cc1ccc(C)c(CN2CCCN(Cc3ccccc3C)S2(=O)=O)c1,109.0,111.0

# Further compounds.
SMILES,Polio RdRp inh,Polio RdRp inh intensity
CCOCCc1nn2c(=O)cc(COC(=O)c3ccc(NC(=O)C(C)(C)C)cc3)nc2s1,103.0,111.0
Cc1ccc2occ(-c3cc(-c4ccc(F)cc4)nc4c3COc3ccc(F)cc3-4)c(=O)c2c1,105.0,112.0
O=C(Cn1c(=O)oc2ccccc21)Nc1ccc(C(=O)O)cc1,102.0,104.0
CN1CCN(c2nc3c(S(=O)(=O)c4ccc(Br)cc4)nnn3c3ccsc23)CC1,111.0,113.0
Cc1cc(C)c2oc(-c3cccc(NC(=O)COc4ccc([N+](=O)[O-])cc4)c3)nc2c1,107.0,107.0
Cc1ccc(Cl)c2c1N[C@@H](c1ccc(C(=O)O)cc1)[C@H]1CC=C[C@@H]21,109.0,111.0
Cc1cccc(N2CCN(C(=O)c3ccc4c(c3)N(Cc3cccc(Cl)c3)C(=O)c3ccccc3S4=O)CC2)c1C (stereo not given),106.0,99.0
CCc1ccc(NS(=O)(=O)c2ccc3[nH]c4c(c3c2)CCCCCC4)cc1,101.0,104.0
COc1ccc(CN2CCCN(CC(=O)Nc3ccc(Br)cc3F)S2(=O)=O)cc1,106.0,103.0
CCOc1cc(C(=O)N2CCC(c3ccncc3)CC2)cc(OCC)c1OCC,102.0,104.0
CC(=O)N1c2c(cc(Br)cc2S(=O)(=O)Nc2ccc(OC(F)(F)F)cc2)CC1C (stereo not given),101.0,101.0
O=S(=O)(c1ccc2nc(Nc3ccc(Br)cc3F)ccc2c1)N1CCCC1,98.0,94.0
CC(=O)c1ccc(NC(=O)c2cn3c4c(ccc(Cl)c4c2=O)OC(C)C3)cc1 (stereo not given),114.0,115.0
CS(=O)(=O)N1CCc2cc(C(=O)N3CCN(c4ccc(F)cc4)CC3)ccc21,105.0,111.0
Cn1c(=O)oc2cc(S(=O)(=O)CCC(=O)NCc3ccc(Cl)cc3)ccc21,111.0,112.0
CCCCN1C(=O)CN(C2CCCCCC2)C(=O)C1c1ccc(OC(C)C)c(OC)c1 (stereo not given),105.0,102.0
C=CCc1cccc2cc(-c3nc4ccc(C(=O)O)cc4[nH]3)c(=O)oc12,109.0,111.0
CCOc1cc(-c2nnc(SCC(=O)NC3CCCCC3)nc2-c2ccc(OC)c(OCC)c2)ccc1OC,110.0,113.0
COc1ccc(OCC(=O)Nc2ccc3c(c2)nc(CCNC(=O)c2ccco2)n3C)cc1,101.0,107.0
CCCOc1ccc(C2SCC(=O)Nc3c2c(C)nn3-c2cccc(C)c2)cc1OC (stereo not given),108.0,109.0
CCOC(=O)N1CCC(NC(=O)c2cnn(-c3cccc(Cl)c3C)c2C2CCN(C(=O)OC(C)(C)C)CC2)CC1,99.0,104.0
Cc1ccc2oc(C(=O)Nc3sc4c(c3C(=O)NCc3ccco3)CCC4)cc(=O)c2c1,107.0,107.0
COc1ccc(Cn2c(C(=O)O)c(CNCc3ccco3)c3ccc(OC)cc32)cc1,102.0,106.0
Cc1cccc(NC(=O)CSc2nc(-c3ccccc3)cc(=O)[nH]2)c1C,98.0,98.0
COc1ccc(C2C(=O)N(C3CCCCC3)CC(=O)N2CCc2ccc(OC)c(OC)c2)cc1 (stereo not given),112.0,113.0

# Entries above with an aryl thioether with sulfur outside any ring (9):
SMILES,Polio RdRp inh,Polio RdRp inh intensity
CCC(Sc1nc2ncccc2[nH]1)C(=O)Nc1ccccc1F (stereo not given),116.0,109.0
Cc1ccc(NC(=O)CSc2nc(-c3ccc(F)cc3)nc3c2Cc2c(CO)cnc(C)c2O3)cc1C,106.0,108.0
Cc1ccccc1OCC(=O)Nc1ccc2nc(SCC(=O)N3CCc4ccccc43)sc2c1,101.0,104.0
COCCCn1c(SCc2cccc(Cl)c2)nc2c(sc3ccccc32)c1=O,98.0,95.0
COc1ccccc1NC(=O)c1c(C)cc(C)nc1SCC(=O)Nc1cccc(C)c1,113.0,109.0
Cc1ccc(-n2c(SCc3ccccc3)nc3c([nH]c4ccccc43)c2=O)cc1,105.0,110.0
CCOc1ccccc1NC(=O)c1nc(SC(C)C)ncc1Cl,104.0,100.0
CCOc1cc(-c2nnc(SCC(=O)NC3CCCCC3)nc2-c2ccc(OC)c(OCC)c2)ccc1OC,110.0,113.0
Cc1cccc(NC(=O)CSc2nc(-c3ccccc3)cc(=O)[nH]2)c1C,98.0,98.0

# Continued.
SMILES,Polio RdRp inh,Polio RdRp inh intensity
O=S(=O)(Nc1cccc(-c2ccc(N3CCCCCC3)nn2)c1)c1cccc(F)c1,102.0,104.0
COc1ccc2c(c1)C=C(C(=O)NCc1cc(Br)ccc1OC)CO2,103.0,103.0
Cc1cc(C)cc(NC(=O)Nc2cccs2)c1,113.0,116.0
COc1ccc2sc(N(Cc3cccnc3)C(=O)c3ccco3)nc2c1,117.0,116.0
COc1ccc(N2C(=O)CSC23C(=O)N(CC(N)=O)c2ccccc23)cc1 (stereo not given),112.0,111.0
CCOC(=O)CSC1=Nc2ccccc2C2=NC(CCC(=O)NCc3ccccc3)C(=O)N12 (stereo not given),107.0,113.0
COc1ccc(NC(=O)C2CCN(c3ccc(Sc4ccc(C)cc4)nn3)CC2)cc1,101.0,107.0
COc1cccc(CNC(=O)Cn2nc(N3CCN(c4ccccc4OC)CC3)ccc2=O)c1,114.0,118.0
CC(NC(=O)c1ccc(N2Cc3ccccc3Oc3ncccc32)s1)c1ccccc1 (stereo not given),104.0,107.0
CCN(C(=O)CCNC(=O)Cn1cnc2ccccc2c1=O)c1cc(OC)ccc1OC,109.0,113.0
CCCC(=O)C1=C(c2ccc(C)cc2)N(C(=O)CCC)n2cnnc2S1,101.0,98.0
CCNc1ncnc2c1nnn2C,103.0,102.0
Cn1cnc(S(=O)(=O)N2CCC(C(=O)Nc3ccc(F)cc3F)CC2)c1,108.0,112.0
Cc1ccc(CNC(=O)c2c[nH]c3ccc(S(=O)(=O)Nc4ccc(C(C)C)cc4)cc3c2=O)cc1,97.0,94.0
Cn1c(=O)oc2cc(S(=O)(=O)CCC(=O)N3CCN(c4ccccc4F)CC3)ccc21,110.0,110.0
COc1ccccc1-c1noc(CSc2nnc(Cc3ccccc3)n2-c2ccc(C)c(C)c2)n1,112.0,114.0
COc1ccccc1N1CCN(c2c(CN3CCCC3)c(=O)oc3ccccc23)CC1,105.0,111.0
O=C(O)c1ccc2c(c1)N(Cc1ccc(F)cc1)C(=O)c1ccccc1S2=O (stereo not given),108.0,105.0
O=C(Nc1nnc(S(=O)(=O)N2CCCCCC2)s1)c1cccc(Br)c1,107.0,105.0
Cc1ccc(Cl)cc1NC(=O)c1ccc2nc(CCc3ccccc3)oc2c1,105.0,107.0
CCOc1ccc(NC(=O)Cn2c(=O)n(Cc3ccc(C(=O)NCc4ccc(C)cc4)cc3)c(=O)c3ccccc32)cc1,111.0,114.0
COC(=O)CC(=O)CSc1nc2cc(C(=O)NCC(C)C)ccc2c(=O)n1CCc1ccccc1,113.0,100.0
CCCCNC(=O)CCC(=O)NNc1nc2ccccc2c2nc(C)nn12,81.0*,82.0*
CCOC(=O)c1c(NC(C)=O)c2c3c(sc2n1Cc1nc(-c2cccc(C)c2)oc1C)CCCC3,109.0,116.0
COc1cccc(CNc2sc3c(c2C(=O)Nc2ccc(OC)cc2OC)CCC3)c1,113.0,111.0
CCc1ccc(N2CC(C)Cn3c2nc2c3c(=O)n(CC(=O)O)c(=O)n2C)cc1 (stereo not given),107.0,105.0
Cc1ccc(CN2CCN(CC(=O)NCc3ccccc3Cl)C2=O)cc1,112.0,113.0
CCOC(=O)c1ccc(NC(=O)C2CCN(S(=O)(=O)Cc3ccccc3)CC2)cc1,110.0,106.0
CCN(c1ccccc1)S(=O)(=O)c1ccc(NC(=O)c2nc(SC)ncc2Cl)cc1,121.0,117.0
COc1ccc(-c2c(C#N)c(SCC(=O)Nc3ccc(Br)cc3)nc(C)c2C(=O)Nc2ccccc2)cc1,105.0,108.0

# Part of the list above, as tab-separated lines:
molecule	Polio RdRp inh	Polio RdRp inh intensity
Cc1ccc(C(=O)N2CCc3cc(CNS(=O)(=O)c4ccc(Cl)s4)ccc32)cc1	111.0	110.0
CCOc1ccccc1NC(=O)c1nc(SC(C)C)ncc1Cl	104.0	100.0

# These rows are one share of the data; rates above refer to the full screens.
